PKD1 kinase inh = blocks activity of human protein kinase D1; hit rate 0.056% among 200,000; PKD1 kinase fluorescence polarization assay; inhibition, %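 (about 10 µM by stock and volumes)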;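 active means inhibition of 50% or more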;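 further: controls were vehicle for no effect and a reference inhibitor for full effect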
GALR2 agonist = agonists of human galanin receptor 2 (GALR2); GALR2-expressing cells, agonist activation read-out; activation, %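 (tested at 5 µM)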; hit rate 0.48% among 140,000; AID 803;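 active means above mean plus 3 SD of all compounds, about 5% in these data, not always enough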;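 further: 0% = vehicle buffer wells and 100% = reference agonist at full effect; tested in CHO reporter cells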
Target sequence (O43603 whole entry, looked up): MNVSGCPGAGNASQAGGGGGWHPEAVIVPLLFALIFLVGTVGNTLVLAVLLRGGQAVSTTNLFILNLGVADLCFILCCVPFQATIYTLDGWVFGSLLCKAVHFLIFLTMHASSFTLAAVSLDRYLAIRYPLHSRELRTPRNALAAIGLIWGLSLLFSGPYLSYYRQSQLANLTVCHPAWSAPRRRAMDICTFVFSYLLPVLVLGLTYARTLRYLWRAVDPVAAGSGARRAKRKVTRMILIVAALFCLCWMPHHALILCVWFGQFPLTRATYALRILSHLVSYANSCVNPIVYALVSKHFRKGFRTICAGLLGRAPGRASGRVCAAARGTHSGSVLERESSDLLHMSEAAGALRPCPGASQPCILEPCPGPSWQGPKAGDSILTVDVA
INS promoter inh = TRM-6 insulin promoter activity inhibition; TRM-6 cells (human fetal islet line), insulin promoter-eGFP reporter, imaging; reporter expression induced with tamoxifen; inhibition, % at 2 µM; hit rate 0.9% among 130,000;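 active means inhibition above the mean plus 3 SD, with well images judged a real hit on visual review, cut at about 60% in these data, passing the limit was not always enough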
HSV replic up = HSV replication enhancement; HSV replication augmentation in cells, fold increase; hit rate 0.005% among 220,000; maximum fold increase; AID 1956;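 active means peak rise of 1.5-fold or more in the series; tested in PC3 cells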;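 further: first round at 10 µM; read as green reporter fluorescence; hits show the peak of a series up to 25 µM; 1 = signal of infected wells without compound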
RGS16-Gao = RGS16-Galphao interaction regulator (human). O15492+P09471. bead-based flow cytometry RGS16-Galphao binding, fluorescence; actives lie on both sides. binding response (% of control), % at 10 µM. hit rate 0.38% among 220,000. AID 1441;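 active means below 25% or above 175%, edge rows of some plates excepted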;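 further: Galphao activated by GDP with aluminum fluoride before binding; 100% = wells without compound and 0% = beads without RGS; some results beyond the cut were filed as inactive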
Target sequence (O15492 whole entry, looked up): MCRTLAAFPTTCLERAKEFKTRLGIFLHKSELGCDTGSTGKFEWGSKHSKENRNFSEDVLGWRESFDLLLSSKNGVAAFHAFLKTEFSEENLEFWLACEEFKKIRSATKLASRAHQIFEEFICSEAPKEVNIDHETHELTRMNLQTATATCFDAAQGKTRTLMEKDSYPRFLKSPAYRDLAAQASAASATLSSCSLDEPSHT
Target sequence (P09471 whole entry, looked up): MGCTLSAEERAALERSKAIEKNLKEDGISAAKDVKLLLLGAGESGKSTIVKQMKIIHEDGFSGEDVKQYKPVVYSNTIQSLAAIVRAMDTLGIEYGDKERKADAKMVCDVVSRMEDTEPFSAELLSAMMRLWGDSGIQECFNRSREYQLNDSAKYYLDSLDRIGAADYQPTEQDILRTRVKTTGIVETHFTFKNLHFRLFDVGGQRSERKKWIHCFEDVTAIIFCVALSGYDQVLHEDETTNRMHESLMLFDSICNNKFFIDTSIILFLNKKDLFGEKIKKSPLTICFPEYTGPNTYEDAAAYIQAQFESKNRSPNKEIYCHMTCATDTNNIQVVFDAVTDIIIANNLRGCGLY
INS promoter inh cell count = also measured in INS promoter inh; calls as there; normalized cell count, %; measured here: cell count, toxicity; reference of the scale not given here;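 cells exposed to compound for 48 h; stained nuclei by imaging scaled within each plate; lower means fewer cells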
HSV replic up primary fold = recorded beside HSV replic up, whose call it bears; fold increase; compound at 10 µM; measured here: primary screen fold increase 10 uM; tested in PC3 cells;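 GFP signal in the first replicate; 1 = infected wells without compound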
* hit, by the source's call; i = inactive; . = no result given.

Fields: GALR2 agonist, HSV replic up, RGS16-Gao, INS promoter inh cell count, INS promoter inh, PKD1 kinase inh, HSV replic up primary fold
O=C(O)C1CCc2sc3[nH]c(=S)n(-c4ccccc4)c(=O)c3c21 (centres undefined)
  ., i, 102, ., ., ., 1
Cn1nc([N+](=O)[O-])c(C(C#N)c2ccccn2)c(Cl)c1=O (centres undefined)
  ., i, 96, 112, 7, 6, 0.73
O=C(NNC(=S)Nc1ccccc1)NNC(=S)Nc1ccccc1
  ., i, 94, 99, 41, -4, 1
O=C1CC(N2CCN(c3ccccc3O)CC2)C(=O)N1Cc1ccccc1 (centres undefined)
  ., i, 110, 152, 14, -1, 0.93
N#CC1=C(SCc2ccccc2)NC2=C(C(=O)CCC2)C1c1ccc2c(c1)OCO2 (centres undefined)
  -3.1, i, 105, ., ., 0, 0.91
CCC(C)(CC(=O)N(C)CCC#N)c1ccccc1 (centres undefined)
  2.0, i, 98, 47, -3, -2, 0.94
Cc1ccc2nc(SCC(=O)Nc3ccc(F)cc3F)[nH]c2c1
  ., i, 98, ., ., -9, 0.85
O=[N+]([O-])c1ccccc1S(=O)(=O)n1cnc2ccccc21
  ., i, 93, 112, 17, -3, 1
Cc1ccc(-c2nnc(SCC#CCOC(=O)c3ccco3)o2)cc1
  0.2, i, 101, 98, -11, -6, 0.89
CC(=O)N(c1ccc(N(C(C)=O)S(=O)(=O)c2cccs2)cc1)S(=O)(=O)c1cccs1
  -0.5, i, 96, 78, -38, -2, 1.1
CC1Cc2ccccc2N1C(=O)Cn1cnc2ccccc21 (centres undefined)
  ., i, 105, 82, -11, -6, 1.1
Cc1ccc(-n2c(COc3ccccc3)n[nH]c2=S)cc1
  ., i, 109, 125, -121, 0, 0.87
CC(C)(C)c1nnc(SCC(=O)c2ccccc2)n(N)c1=O
  0.0, i, 103, 121, -57, -6, 0.93
CC(C)(C)n1nnnc1C(c1cccs1)N(Cc1ccc(Cl)cc1)CC1CCCO1 (centres undefined)
  -2.3, i, 103, ., ., -2, 0.99
CCCCC1=NN2CCS(=O)(=O)N=C2S1
  ., i, 101, ., ., -2, 0.89
O=C1NC(=O)/C(=C\c2ccc(OCc3cccc([N+](=O)[O-])c3)cc2)N1
  ., i, 95, 155, 0, 1, 0.89
COc1ccc(Cl)cc1S(=O)(=O)Nc1cccc(C(=O)O)c1
  -2.3, i, 100, ., ., -5, 0.95
Cc1nc2c(n1C1CCCCC1)C(=O)c1ccccc1C2=O
  -0.1, ., 105, 97, -17, 9, .
CCOc1ccc(C/C(N)=N/n2cnnc2)cc1
  -1.7, i, 102, 112, 51, -9, 0.95
O=C(CN(CCO)c1ccccc1)NC12CC3CC(CC(C3)C1)C2
  1.6, i, 166, ., ., -5, 0.98
CCSc1ccccc1C(=O)NCc1cccnc1
  ., i, 101, ., ., -8, 1
CN(C)CCNC(=O)C(=O)C1C(=O)Nc2ccccc21 (centres undefined)
  ., i, 109, ., ., -8, 1
C=CCNc1nc(-c2cccc(OC)c2O)nc2ccccc12
  -0.5, i, 95, ., ., 2, 0.75
CCOC(=O)c1c(-c2ccc(-c3ccccc3)cc2)csc1NC(=O)CCN1CCOCC1
  0.4, i, 105, ., ., -1, 0.9
COc1ccc(N2CCN(C(CNS(=O)(=O)c3cccs3)c3cccnc3)CC2)cc1 (centres undefined)
  0.2, i, 97, 119, 10, 1, 1
CC(=O)c1c(C)[nH]c(C(=O)OC(C)C(=O)Nc2cc(S(=O)(=O)N3CCCCC3)ccc2Cl)c1C (centres undefined)
  -0.9, i, 43, 113, 18, 8, 0.95
CC(C)CCN=CC1=C(O)CC(c2ccccc2)CC1=O (centres undefined)
  ., i, 103, ., ., -5, 0.81
CN1CCCC1CCNS(=O)(=O)c1ccc(Br)cc1 (centres undefined)
  0.4, i, 103, 129, -125, 3, 0.84
CCCc1nc2sc3c(c2c(=O)n1NC(=O)CCC(=O)OC)CCCC3
  ., i, 102, ., ., ., 0.99
CCOC(=O)c1[nH]c(C)c(CN(Cc2ccco2)C(=O)C(F)(F)F)c1C
  -1.9, i, 106, 64, -36, 0, 0.95
O=C(CCc1nc2ccccc2c(=O)[nH]1)OCC(=O)N1CCc2ccccc21
  ., i, 105, 76, -108, -4, 0.82
COc1ccc(C(=O)n2c(SC)nc3cc4c(cc32)OCCO4)cc1
  0.6, i, 102, ., ., -1, 0.86
CC1CN(Cc2ccccc2)c2nc3c(c(=O)[nH]c(=O)n3C)n2C1 (centres undefined)
  ., i, 102, ., ., ., 0.94
CC1=CC(C)(C)N(C(=O)CN2C(=O)CCC2=O)c2ccccc21
  ., i, 110, ., ., -7, 0.98
CC(/C=C/c1ccccc1)=N/NC(=O)CNC(=O)c1ccc2c(c1)OCO2
  -1.2, ., 105, 91, -77, 6, .
COC(=O)c1ccc(S(=O)(=O)NCc2ccco2)o1
  ., i, 100, ., ., ., 1.1
COCCNC(=O)c1ccc(Cl)c(Cl)c1
  -1.9, i, 97, 124, -25, -1, 0.93
CN(C)S(=O)(=O)c1ccc(Cl)c(NC(=O)c2ccncc2)c1
  -1.5, i, 106, 98, 0, -2, 0.97
O=[N+]([O-])c1cccc(-c2ccc(/C=N/Nc3nc(N4CCCCC4)nc(N4CCCCC4)n3)o2)c1
  ., i, 102, ., ., -5, 0.85
O=C(Cc1ccc(Cl)cc1)NCC(=O)N1CCCCC1
  ., i, 100, ., ., -3, 0.53
CC(C)Oc1ccc(C(=O)N(Cc2ccco2)C2CCS(=O)(=O)C2)cc1 (centres undefined)
  -1.0, i, 74, 105, -17, 15, 0.82
COc1ccc(-c2coc3cc(OC)cc(OC)c3c2=O)cc1
  ., i, 104, ., ., 7, 0.76
CC(C)C(CO)NC(=O)CC(=O)NC(CO)C(C)C (centres undefined)
  -0.8, i, 100, 44, 14, -6, 0.94
Cc1cc(C)c(NS(=O)(=O)c2ccc(NC(=O)CCC(=O)O)cc2)c(C)c1
  ., i, 99, 124, 8, -5, 0.93
O=C(N/N=C/c1cc(Br)cs1)c1c[nH]c2ccccc12
  ., i, 100, ., ., ., 1
CCOC(=O)C(C)Sc1ccc2nnc(CCNS(=O)(=O)c3ccccc3)n2n1 (centres undefined)
  ., i, 92, ., ., 7, 0.99
Cc1cccc(S(=O)(=O)NNC(=O)c2sc(C)nc2C)c1
  -0.5, i, 86, 76, -14, -8, 1
Cc1ccc(/C=N/N2CCN(C3c4ccccc4-c4ccccc43)CC2)s1
  0.3, i, 118, 103, 24, -2, 0.89
COc1cccc(N2CCN(Cc3cccnc3)CC2)c1
  -1.5, i, 99, 48, -73, 5, 0.98
O=Cc1sc([O-])nc1-[n+]1ccc2ccccc2c1
  ., i, 104, ., ., ., 0.96

(more compounds)
Fields: GALR2 agonist, HSV replic up, RGS16-Gao, INS promoter inh cell count, INS promoter inh, PKD1 kinase inh, HSV replic up primary fold
COc1ccc(/C(N)=N/OC(=O)CSc2ccc(C)cc2)cc1
  -0.6, i, 94, 120, -7, -1, 0.95
O=S1(=O)CCN(Cc2ccc(Cl)c(C(F)(F)F)c2)CC1
  ., i, 97, ., ., -7, 1.1
COc1ccccc1NC(=O)c1cnc2c(-c3ccccc3)c(C)nn2c1C
  ., i, 101, ., ., 6, 0.94
CC(C)Cn1c(CCCNC(=O)c2ccc(F)cc2)nc2ccccc21
  -2.4, i, 101, ., ., 11, 0.93
CC(=O)c1cccc(NC(=O)C2CC(=O)N(c3cccc(C)c3C)C2)c1 (centres undefined)
  -0.8, i, 97, ., ., 1, 0.85
Cn1ccnc1C(O)(c1ccccc1)c1nccn1C
  ., i, 86, ., ., ., 0.93
O=C1NC(=O)[C@@H]2C3c4ccccc4C=CN3[C@H](C(=O)c3cccs3)[C@H]12 (some centres undefined)
  -4.0, i, 74, ., ., 12, 1.1
CCC(CC)c1nnc(NC(=O)c2ccc(N3CCCCC3)c([N+](=O)[O-])c2)s1
  -1.8, i, 104, 141, 31, 0, 0.87
COc1cccc(NC(=O)CC2C(=O)NCCN2C(=S)Nc2ccc(F)cc2)c1 (centres undefined)
  ., i, 91, ., ., -2, 1
CC(C)CCNC(=O)CSc1nc2ccccc2c(=O)[nH]1
  -1.9, i, 96, 80, 34, 5, 1.1

Some of the entries so far, with bars between the fields.
Structure | GALR2 agonist | HSV replic up | RGS16-Gao | INS promoter inh cell count | INS promoter inh | PKD1 kinase inh | HSV replic up primary fold
CC(=O)c1cccc(NC(=O)C2CC(=O)N(c3cccc(C)c3C)C2)c1 (centres undefined) | -0.8 | i | 97 | . | . | 1 | 0.85
Cn1ccnc1C(O)(c1ccccc1)c1nccn1C | . | i | 86 | . | . | . | 0.93

Next records:
Fields: GALR2 agonist, HSV replic up, RGS16-Gao, INS promoter inh cell count, INS promoter inh, PKD1 kinase inh, HSV replic up primary fold
Cc1c(OCC(=O)N(C)C)ccc2c3c(c(=O)oc12)CCCCC3
  ., i, 101, ., ., -2, 0.91
CCOc1ccccc1-c1nc(SCC(=O)O)n[nH]1
  -1.0, i, 85, ., ., 0, 0.98
O=c1cc(O)c(-c2cccc(Cl)c2)c(Cl)[nH]1
  0.0, i, 85, 91, 29, -3, 1
C/C(=N\Nc1ccc(C#N)cc1[N+](=O)[O-])c1ccc(C)o1
  ., i, 95, ., ., ., 0.98
Cn1c(=NC(=O)CSCC(=O)N2CCOCC2)sc2ccccc21
  -1.2, i, 97, 100, 11, -6, 0.84
CNC(=S)Nc1cc(C(F)(F)F)ccc1Cl
  -1.6, i, 104, 91, 10, -8, 0.95
COC(=O)c1c(C#N)c(N)nc2c1CCCC2
  -1.3, ., 94, 81, 7, -6, .
CC(C)CCOCC(=O)Oc1ccccc1C(=O)O
  -1.1, i, 102, ., ., -8, 1
CCOc1ccc(Nc2nnc(Cc3ccc(OC)cc3)c(=O)[nH]2)cc1
  ., i, 100, ., ., 1, 0.94
NNc1nc(-c2ccccc2)cc(-c2ccccc2)n1
  ., i, 107, ., ., -2, 0.91
COc1ccc(C(=O)c2cc3c(cc2[N+](=O)[O-])OCCO3)cc1
  ., i, 106, ., ., -4, 1.1
O=C(N/N=C/c1cccs1)c1ccc2ncccc2c1
  ., i, 105, 101, 5, -1, 0.84
COc1ccc(C(=O)NC(C)c2nnc(SCC(=O)Nc3nc(C)cs3)n2C)cc1 (centres undefined)
  -0.7, i, 112, 72, 9, 4, 0.77
c1ccc2sc(NC3=NCN(CCN4CCOCC4)CN3)nc2c1
  ., i, 105, 89, -133, 3, 0.93
CC1=CC(C)(C)N2C(=O)C3(C(C#N)=C(N)Oc4cc(O)ccc43)c3c(C)c(C)cc1c32 (centres undefined)
  -1.0, i, 101, 41, -42, -10, 0.51
Fc1ccc(N/N=C(/c2ccccc2)c2ccccn2)cc1
  -0.6, i, 106, 141, 17, -2, 1
COc1ccc(O)c(C2=Nc3ccccc3N=C(c3ccco3)C2)c1
  -0.6, i, 103, 78, -40, -4, 1
C(=N\Nc1nc(-c2ccccc2)cs1)/c1cccs1
  -4.9, i, 94, 106, 43, -1, 0.73
CCn1c(C)c(C)c2cc(C(=O)Nc3cccc(Cl)c3)ccc21
  -1.0, i, 105, ., ., -13, 0.82
COc1ccc(Cc2noc(CN3CCNC(=O)CC3)n2)cc1OC
  ., i, 116, ., ., 2, 1.1

Individual results from the entries so far.
For HSV replic up primary fold, COc1ccc(Cc2noc(CN3CCNC(=O)CC3)n2)cc1OC is listed with 1.1
For RGS16-Gao, c1ccc2sc(NC3=NCN(CCN4CCOCC4)CN3)nc2c1 is listed with 105
For HSV replic up primary fold, COc1ccc(C(=O)NC(C)c2nnc(SCC(=O)Nc3nc(C)cs3)n2C)cc1 (centres undefined) is listed with 0.77

Other compounds follow:
Fields: GALR2 agonist, HSV replic up, RGS16-Gao, INS promoter inh cell count, INS promoter inh, PKD1 kinase inh, HSV replic up primary fold
CC(NC(=O)C1CCCCC1)c1ccc2c(c1)OCCO2 (centres undefined)
  -2.2, i, 99, 145, 60, -19, 0.82
COc1ccc(CCNS(=O)(=O)c2cccs2)cc1
  -2.5, i, 102, 121, -148, -2, 0.87
Cc1ccc(S(=O)(=O)CCC(=O)NCc2ccccc2)cc1
  -0.5, i, 91, 92, -11, 0, 1.1
O=C(CC1C(=O)NCCN1C(=O)c1ccc(F)cc1)OCc1ccccc1 (centres undefined)
  -1.3, i, 146, 103, -9, -9, 0.92
CCOc1ccccc1NC(=O)COC(=O)c1cccc(-c2ccc(OC(C)=O)cc2)c1
  1.6, i, 109, ., ., -6, 0.88
COc1ccc(CNC(=O)CN2CCC(C(=O)c3ccc(OC)cc3)CC2)cc1
  -0.1, i, 99, ., ., -4, 0.84
CC1CN(C(=S)SCCN2Cc3ccccc3C2=O)CC(C)O1 (centres undefined)
  -0.1, i, 42, 108, 0, -10, 1
CC(=C1C(=O)c2ccccc2C1=O)N1CCN(c2ccccn2)CC1
  -1.3, i, 80, 106, 14, -4, 0.86
CS(=O)(=O)Nc1ccc(C(=O)NCCSC2CCCCC2)cc1
  -0.6, i, 113, 116, -42, 3, 0.88
COC(=O)Cc1ccc(NC(=S)NC(C)(C)C)cc1
  ., i, 102, ., ., -4, 1

Screening results from PubChem.

No enrichment for hits. About 1.3% of those tested had a hit in this group.
